From PubChem
Vif A3G: inhibitors of Vif binding to APOBEC3G peptide, primary screen, biochemical, TR-FRET, GST-Vif 1-94, biotin-A3G peptide, dose response retest (AID 1117319) | TR-FRET GST-Vif / biotin-A3G peptide binding; higher % means a stronger effect; test concentration not given here; strong numbers were not always called active | inhibition, %; hits with a dose series show IC50 in µM | hit rate 0.57% among 260,000;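 active = above the screen mean plus three standard deviations and confirmed in dose response; inconclusive = results disagree or hit not tested in dose response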;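 also: Vif residues 1-94 fused to GST binding biotinylated APOBEC3G peptide 110-148; 0% = full assay without inhibitor and 100% = GST in place of GST-Vif; retest series ran down from 100 µM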
rRNA inh HTS: inhibitors of bacterial rRNA selective over humanized ribosomes; E. coli WT GFP vs humanized-ribosome RFP mutants, fluorescence, 24 h; stronger effect = lower value; DMSO median 0, no signal -100; GFP signal change (wild-type ribosome), % (concentration not given with the values); hit rate 1.6% among 350,000; AID 720706;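 active = significant combined selectivity score with lowered wild-type GFP, culture density cut under 30%, mutant RFP and density less affected; inactive = any of these conditions unmet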; also: one replicate is shown; some compounds called inactive have numbers as strong as hits
ALR inh: blocks human ALR sulfhydryl oxidase activity | purified ALR, DTT oxidation, H2O2 HRP-luminol luminescence | inhibition, % (test concentration not listed) | hit rate 3.8% among 290,000 | AID 485317;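 active = mean and each replicate at 75% or more; inconclusive = only one of the two met; inactive = neither met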;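 also: stock transfer was 7.5 nL into about 7.5 µL; 0% = neutral wells and 100% = wells with inactivated enzyme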
Target sequence (P55789 whole entry, looked up): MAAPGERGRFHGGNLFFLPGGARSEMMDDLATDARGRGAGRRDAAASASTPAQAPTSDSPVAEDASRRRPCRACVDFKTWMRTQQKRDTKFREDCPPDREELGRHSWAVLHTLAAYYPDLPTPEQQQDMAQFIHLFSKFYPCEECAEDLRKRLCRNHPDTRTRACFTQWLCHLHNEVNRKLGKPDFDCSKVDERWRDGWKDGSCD
Ecoli growth: blocks Escherichia coli growth; OD600, 23 h; stronger effect = lower value; OD600 absorbance (no concentration beside the values); hit rate 0.21% among 330,000; AID 1053175;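 active = OD600 absorbance below the run mean of sample wells minus 3.6 SD, in any replicate, cut at about 0.56 in these data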;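 also: stock transfer was 300 nL into about 60 µL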
HNF4A DNA FP: change in binding of human HNF4 alpha to DNA; P41235; HNF4a-FITC DNA binding, fluorescence polarization, 1 h; activity change, % at 10 µM; hit rate 0.3% among 360,000; AID 1224865; in the data active = activity change above about 30%, passing the limit was not always enough;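 also: controls were the assay level and a saturating level of protein; the project sought stronger binding though the title names inhibitors; some compounds called inactive have numbers as strong as hits; positive values seem to mean higher polarization but the record does not say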
Target sequence (P41235 whole entry, looked up): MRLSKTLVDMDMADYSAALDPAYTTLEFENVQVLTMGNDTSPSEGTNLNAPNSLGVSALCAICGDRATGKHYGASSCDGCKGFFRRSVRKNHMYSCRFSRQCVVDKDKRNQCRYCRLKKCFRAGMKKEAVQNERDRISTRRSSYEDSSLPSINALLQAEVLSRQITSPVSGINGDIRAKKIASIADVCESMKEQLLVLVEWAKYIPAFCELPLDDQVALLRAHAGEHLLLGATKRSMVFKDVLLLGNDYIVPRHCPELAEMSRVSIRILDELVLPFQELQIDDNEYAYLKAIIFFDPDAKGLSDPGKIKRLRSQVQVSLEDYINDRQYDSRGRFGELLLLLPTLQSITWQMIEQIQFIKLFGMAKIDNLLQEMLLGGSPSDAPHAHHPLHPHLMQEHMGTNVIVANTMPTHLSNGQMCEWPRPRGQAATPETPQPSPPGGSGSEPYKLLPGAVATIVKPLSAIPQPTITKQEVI
FGF22 binding: FGF22 (human) thermal shift binding; hit rate 1.5% among 340,000; recombinant FGF22 thermal shift, SYPRO orange fluorescence; percent of sucrose octasulfate shift, DMSO zero; Q9HCT0; calls only at 9.99 µM; AID 651658;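 active = melting point raised past a set limit in the mean and every replicate; inconclusive = no clear call; three in four hits are not shown here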
Target sequence (Q9HCT0 whole entry, looked up): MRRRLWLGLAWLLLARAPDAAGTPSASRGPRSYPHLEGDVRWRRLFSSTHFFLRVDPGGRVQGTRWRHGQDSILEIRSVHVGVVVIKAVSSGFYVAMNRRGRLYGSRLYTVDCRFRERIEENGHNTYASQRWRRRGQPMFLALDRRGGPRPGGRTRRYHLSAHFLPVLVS
MLL AF4-AF9 inh: MLL-AF4/AF9 protein interaction inhibition; P42568; AlphaScreen, biotin-AF4 peptide binding to FLAG-AF9; inhibition, % at 10 µM; hit rate 0.47% among 350,000; AID 651704;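 active = every replicate reaching a set inhibition limit, whatever the replicate mean, cut at about 25% in these data; inconclusive = mean inhibition reaches that limit but some replicates miss it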;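 also: 0% = plate neutral control median and 100% = total signal loss; the record names both 10 and 1 µM as test concentration; the first replicate is given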
rRNA inh HTS OD600: also measured in rRNA inh HTS; calls as there; OD600 change, %; measured here: OD600 growth;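 optical density of the mix in the first replicate; 0 = DMSO median and -100 = no signal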
rRNA inh HTS RFP: second read-out of rRNA inh HTS, no call of its own (marks repeat the call); RFP signal change, %; measured here: RFP humanized mutant strains;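 first replicate; 0 = DMSO median and -100 = no signal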
* = called active by the depositor; i = inactive; ? = inconclusive; / = not tested or not shown; & = joins results of further samples. The list is partial. The share of hits here may be higher or lower than overall.

Order of values: Vif A3G, rRNA inh HTS, rRNA inh HTS OD600, rRNA inh HTS RFP, ALR inh, Ecoli growth, HNF4A DNA FP, FGF22 binding, MLL AF4-AF9 inh
> O=C1/C(=C\c2ccsc2)N2CCC1CC2
 : -16%, 11, 5, 1.7, -11, 0.69, -1.6, i, /
> CC(C)(C)[C@H]1C=C(C(=O)NCc2nc3ccccc3[nH]2)O[C@@H](OCc2ccc(CO)cc2)C1
 : -5%, -13, -33, 15, 10, /, -2.0, i, 9.2&3.4
> Cc1ccc(C)c(-c2cc(C(=O)NN3CCOCC3)c3ccccc3n2)c1
 : -5%, 4, -7, 1.7, /, 0.7, 4.1, i, -0.9
> Cc1cc(NC(=O)C2CCCC2)n(-c2nc3ccccc3[nH]2)n1
 : 57%, /, /, /, -14, 0.71, -1.6, /, /
> C[C@@H]1CN([C@@H](C)CO)C(=O)Cc2cc(NC(=O)C3CCCCC3)ccc2O[C@H]1CN(C)Cc1ccncc1
 : /, -2, -3, 0.8, /, /, /, i, 2.3
> CCc1cc2c(=O)c(-c3ccon3)c(N)oc2cc1OC
 : 8%, 10, 5, 4.4, -1, 0.67, 6.4, i, 3.0
> COC(=O)c1ccc(N2CCN(S(=O)(=O)c3ccc4ccccc4c3)CC2)c([N+](=O)[O-])c1
 : -3%, /, /, /, -3, 0.76, -1.2, /, /
> COc1ccc(S(=O)(=O)N(C)C[C@H]2Oc3ccc(NC(=O)CCCCCC(=O)Nc4ccccc4N)cc3C(=O)N([C@H](C)CO)C[C@H]2C)cc1
 : /, -2, 5, 0.0, /, /, /, i, -2.2
> O=C1CC(N2CCN(C(c3ccccc3)c3ccccc3)CC2)C(=O)N1 (centres undefined)
 : -3%, 4, -4, -1.6, 3, 0.69, -1.6, /, /
> CCOC(=O)CNC(=O)/C=C/c1c(Cl)cccc1Cl
 : /, /, /, /, 0, 0.69, 0.4, /, /
> C[C@H]1CCCCO[C@@H](CN(C)C(=O)NC2CCCCC2)[C@@H](C)CN([C@@H](C)CO)C(=O)c2cc(N(C)C)ccc2O1
 : /, 1, 3, 2.2, /, /, /, i, 4.8
> O=C(CC1SCCNC1=O)Nc1ccc(F)c(Cl)c1 (centres undefined)
 : 0%, 13, 8, 1.7, -12, 0.71, -1.7, i, 14
> CCCCCC(O)CCCC(=O)O (centres undefined)
 : /, /, /, /, /, /, 0.5, i, -4.8
> CC(/C=C/c1ccccc1)=N\NC(=O)CCc1ccccc1
 : /, 7, 13, 3.7, -2, /, -4.0, i, 1.2
> Cc1cc(C)c(NC(=O)CNC(=O)c2cc(C3CC3)nn2-c2ccccc2)c(C)c1
 : -10%, 4, -11, 9.6, -1, 0.67, 0.7, i, -0.6
> C[C@@H]1CN([C@H](C)CO)C(=O)c2cc(NC(=O)c3ccncc3)ccc2O[C@@H](C)CCCCO[C@H]1CN(C)S(=O)(=O)c1ccc(Cl)cc1
 : /, -1, -10, 8.1, /, /, /, i, 3.1
> C[C@@H]1CN([C@@H](C)CO)C(=O)c2cc(NS(C)(=O)=O)ccc2O[C@H]1CN(C)C(=O)Nc1cccc2ccccc12
 : /, 3, 3, 2.9, /, /, /, i, 0.6
> CCOc1ccccc1NC(=O)[C@@H](NC(=O)c1cccc(S(=O)(=O)N2CCOCC2)c1)C(C)C
 : ?, 12, 9, -0.6, -3, 0.69, -1.6, /, -1.7
> CC(=O)c1sc2nc(-c3ccccc3)cc(C)c2c1N
 : -5%, 14, 7, 15, -2, 0.71, -3.0, i, -0.1
> CC1CN(CC(=O)Nc2ccc([N+](=O)[O-])cc2Br)CC(C)O1 (centres undefined)
 : 7%, 0, 3, -3.2, -1, 0.7, 5.5, i, 1.9
> CCOC(=O)c1ccc(NS(=O)(=O)c2c(C)n(C)c(=O)n(C)c2=O)cc1
 : -2%, 3, 10, -1.2, -5, 0.68, -0.4, i, 7.4
> CC1CN(c2oc(-c3ccco3)nc2C#N)CC(C)O1 (centres undefined)
 : 0%, /, /, /, -2, 0.7, -0.4, /, /
> Cc1ccc(OCC(O)Cn2c(N)nc3c2c(=O)n(C)c(=O)n3C)cc1 (centres undefined)
 : 2%, -7, -5, -3.4, /, 0.71, -2.6, i, 0.2
> O=C(OCC#CCSc1nnc(-c2cccc3ccccc23)o1)c1cnc[nH]1
 : /, -16, -28, 3.3, -6, 0.76, -0.3, i, /
> COc1ccc(C(=O)Nc2ccnn2C2CCN(CC3CC=CCC3)CC2)cc1 (centres undefined)
 : /, 4, 15, 2.7, -4, 0.72, 0.9, i, -1.6
> Cn1cc(CN2CCC(C(=O)NC(c3ccc(-c4ccccc4)cc3)c3cnccn3)CC2)c2ccccc21 (centres undefined)
 : /, -29, -37, -11, /, /, -3.1, i, 26*
> O=C(Oc1cccc(Br)c1)c1cccnc1
 : 2%, /, /, /, /, 0.67, 1.5, /, /
> Cc1cccn2c(=O)c3cc(C(=O)NC4CCCC4)c(=N)n(C4CCCCC4)c3nc12
 : /, 4, 3, -3.6, -2, 0.68, -5.2, i, -1.6
> COc1ccc(Br)c(C(=O)OCC(=O)N2CCC(Cc3ccccc3)CC2)c1
 : 8%, -35*, -27*, -6.7*, /, 0.63, 3.1, i, -0.6
> CCCC#Cc1ccc([C@@H]2[C@@H](CO)N(S(=O)(=O)c3cccc(F)c3)[C@H]2C#N)cc1
 : /, -19, -49, 17, /, /, /, i, 2.1
> CNS(=O)(=O)c1cccc(C(=O)OCC(=O)NCCCc2ccccc2)c1
 : -7%, 5, 13, 1.0, 7, 0.68, 4.0, i, -0.5
> COc1ccccc1C(=O)Nc1ccc2c(c1)OC[C@H](C)N(C)C[C@@H](C)[C@H](OC)CN(C)C2=O
 : /, 0, -2, -2.5, /, /, /, i, -2.2
> CC(=O)Nc1nc2c(C)c(Cl)ccc2s1
 : -1%, 7, 5, 0.5, -7, 0.69, -3.2, i, -0.9
> COCCCNC(NC(=O)c1ccc(OC)cc1)C(Cl)(Cl)Cl (centres undefined)
 : 11%, 12, 7, 0.7, -11, 0.68, -0.5, i, -2.1
> CN(CC(=O)Nc1cccnc1)S(=O)(=O)c1cc(Cl)ccc1Cl
 : 2%, -11, -12, 7.6, -2, 0.65, -3.3, i, 1.4
> O=c1[nH]nc(Sc2ccccc2)c(=S)[nH]1
 : 5%, 5, -1, -3.8, /, /, 3.8, i, -3.9
> O=C(Nc1ccc(-n2cnnn2)cc1)C1CCC1
 : -5%, /, /, /, -3, 0.68, 0.7, /, /
> NC(=O)c1nsc(C(=O)N(c2ccccc2)C(C(=O)NCC2CCCO2)c2ccc3ncccc3c2)c1N (centres undefined)
 : /, 4, 2, -1.8, -19, 0.7, 2.5, i, 0.6
> CC(Sc1nc(N2CCOCC2)c2c(c1C#N)CC(C)(C)OC2)C(=O)Nc1ccccc1 (centres undefined)
 : -20%, 11, 13, 0.9, /, 0.71, -4.2, /, /
> COc1ccc(CNc2nc3ccc(C)cc3s2)c(OC)c1OC
 : 1%, -18, -21, 0.3, 6, 0.71, -2.6, i, -6.5

Record cards, from the list above. Order of values: Vif A3G | rRNA inh HTS | rRNA inh HTS OD600 | rRNA inh HTS RFP | ALR inh | Ecoli growth | HNF4A DNA FP | FGF22 binding | MLL AF4-AF9 inh
Results for `O=C(Nc1ccc(-n2cnnn2)cc1)C1CCC1` = -5% | / | / | / | -3 | 0.68 | 0.7 | / | /
Results for `CC(Sc1nc(N2CCOCC2)c2c(c1C#N)CC(C)(C)OC2)C(=O)Nc1ccccc1` (centres undefined) = -20% | 11 | 13 | 0.9 | / | 0.71 | -4.2 | / | /
Results for `COc1ccc(Br)c(C(=O)OCC(=O)N2CCC(Cc3ccccc3)CC2)c1` = 8% | -35* | -27* | -6.7* | / | 0.63 | 3.1 | i | -0.6
Results for `NC(=O)c1nsc(C(=O)N(c2ccccc2)C(C(=O)NCC2CCCO2)c2ccc3ncccc3c2)c1N` (centres undefined) = / | 4 | 2 | -1.8 | -19 | 0.7 | 2.5 | i | 0.6

Going on with the list:
Order of values: Vif A3G, rRNA inh HTS, rRNA inh HTS OD600, rRNA inh HTS RFP, ALR inh, Ecoli growth, HNF4A DNA FP, FGF22 binding, MLL AF4-AF9 inh
> COc1ccc(C(=O)Nc2nc(-c3ccccn3)cs2)cc1S(=O)(=O)N1CCOCC1
 : /, -11, -31, 4.3, 2, 0.7, -1.1, i, -11
> CSc1nc(C)cc(-n2cc(F)c(=O)[nH]c2=O)n1
 : 0%, /, /, /, -2, 0.68, -0.2, /, /
> CCN(CCNC(=O)c1cccc(N2CCCC2=O)c1)c1ccccc1
 : 2%, /, /, /, 98*, 0.73, 0.4, /, /
> CCC1CCCCN1CCCNC(=O)C1CC(=O)N(CCc2ccccc2)C1 (centres undefined)
 : /, 7, 15, 2.8, -2, 0.67, -2.8, i, -1.3
> Cc1ccc2nc(SCC3CCCCO3)[nH]c2c1 (centres undefined)
 : ?, 2, 10, -3.7, 0, 0.68, -4.6, i, -3.0
> O=C(NC1CCCC1)C(c1ccccc1)n1c(Cc2cc(F)cc(F)c2)nc2ccccc21 (centres undefined)
 : /, -7, -39, -4.7, /, /, 1.8, i, -0.2
> Cc1ccc2nc3c(c(Nc4ccc5c(c4)OCCO5)c2c1)CCC3
 : -5%, -57, -77, -29, 98*, 0.66, 2.6, i, 22
> O=C(Nc1cccc2ccccc12)c1csc([C@@H]2C[C@H](O)[C@@H](CO)O2)n1
 : /, 3, 20, 1.9, /, /, 0.2, i, -3.8
> CCc1ccccc1NC(=O)Nc1cccn(Cc2ccc(F)cc2)c1=O
 : /, -2, -1, 3.8, /, 0.69, 0.5, i, 0.6
> COc1ccccc1NC(=O)CN1CCCCCC1
 : /, 7, -2, -1.6, 2, 0.67, 1.4, i, 3.4
> CCC1CCCCN1C(=O)COC(=O)c1cc(=O)[nH]c2ccccc12 (centres undefined)
 : /, -4, -7, 1.8, /, 0.66, 2.2, i, 3.0
> Cc1nc(NCCc2ccccc2)sc1C(=O)O
 : /, -4, -8, 1.0, 8, 0.68, 2.5, i, 2.3
> Cc1ccc(NC(=O)C(=O)NCc2ccccn2)cc1
 : -2%, 16, 18, 2.6, -4, 0.67, 2.0, i, -12
> CC(C)(C)OC(=O)N1CCCC(C(=O)Nc2cccc(C(=O)NC3CC3)c2)C1 (centres undefined)
 : -2%, 13, 6, 1.0, /, /, -4.0, i, -1.9
> O=C(O)CCN1C(=O)/C(=C/c2ccc(-c3nc4ccccc4s3)o2)SC1=S
 : 1%, /, /, /, 62, 0.68, 60*, /, /
> Oc1ccc(Cl)cc1-c1cc(-c2cccc(Br)c2)n[nH]1
 : -5%, /, /, /, 4, 0.67, -4.0, /, /
> Cc1cc(NC(=O)CSc2nnc(-c3ccccc3Cl)o2)no1
 : -3%, -2, -2, 0.6, -15, 0.66, -1.3, i, 1.4
> NS(=O)(=O)c1ccc(N/N=C/c2ccc(O)c(O)c2O)c([N+](=O)[O-])c1
 : 0.92µM*, 2, 11, 4.9, /, /, -19, i, 3.3
> COC(=O)c1cc(=O)n(Cc2ccc(F)cc2)c(=Nc2ccccc2)s1
 : 3%, -1, -1, 1.5, -13, 0.71, 6.2, i, 11
> O=C(C[C@H]1C=C[C@H](NC(=O)c2ccccc2)[C@H](CO)O1)NCCc1ccncc1
 : /, 0, -1, -2.2, /, /, /, i, -1.1
> CO[C@@H]1CN(C)C(=O)c2cc(NC(=O)C3CCOCC3)ccc2OC[C@H](C)N(CC2CC2)C[C@@H]1C
 : /, 1, 0, -4.1, /, /, /, i, -2.4
> CCCN(C)C[C@H]1Oc2ncc(C#CC3CCCCC3)cc2C(=O)N([C@H](C)CO)C[C@@H]1C
 : /, 0, -2, -6.6, /, /, /, i, 13
> Cc1cc(C)n(-c2nc3ccccc3[nH]c2=O)n1
 : 17%, /, /, /, -13, 0.71, -1.1, /, /
